NPYLR7 agonist = activates Aedes aegypti NPYLR7 receptor; HEK293T NPYLR7/Galpha15, GCaMP6s calcium fluorescence; activation, % at 10 µM; 270,000 compounds, 0.15% hits; AID 1259423; in the data active means activation above about 40%;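 further: 0% = vehicle and 100% = reference agonist at the receptor; some compounds past the cut are filed as inactive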
NPYLR7 agonist max-min = further read-out of NPYLR7 agonist, marked with its call; activation, %; measured here: Max-Min RFU normalised activation; some inactives read as strong as hits;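 span of the calcium signal over five minutes; 0% = vehicle and 100% = native peptide agonist; compound fluorescence can raise it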
Active calls of the source: *; & = joins results of further samples. The list is partial (hit frequency here may not be typical).

Screening Cc1ccc(COC2C[C@](OCc3cccc(C(F)(F)F)c3)(C(=O)NN3CCOCC3)C[C@@H](O)[C@H]2O)cc1 (some centres not stated) returned NPYLR7 agonist 7 and NPYLR7 agonist max-min 19.
For Cc1ccc(C2(O)CCN(C(=O)C(C)(C)NC(=O)c3cccs3)CC2)nc1 the results were NPYLR7 agonist 18 and NPYLR7 agonist max-min 13.
Screening Cc1nc2sc(C(=O)N(C)Cc3ccc(Br)s3)c(C)c2c(=O)[nH]1 returned NPYLR7 agonist -5 and NPYLR7 agonist max-min 5.
`CCOC(=O)CC1C(=O)NCCN1C(=O)[C@H]1c2ccccc2C(=O)N(Cc2ccccc2)[C@H]1c1ccc(OC)cc1` (some centres not stated) gave NPYLR7 agonist -8 and NPYLR7 agonist max-min -11.
`Cc1nn(CC(=O)NC2CCCN(CCc3ccccc3)C2)c(=O)c2ccccc12` (configuration not stated) gave NPYLR7 agonist 11 and NPYLR7 agonist max-min 1.
For CCN1C(=O)NC(c2ccc(Cl)cc2Cl)C2=C1CN(CCC(=O)NCCc1ccccn1)C2=O (configuration not stated) the results were NPYLR7 agonist -1 and NPYLR7 agonist max-min -1.
For O=C(CN1CCc2ccccc2C1)N1N=C(c2ccc(F)cc2)CC1c1ccccc1F (configuration not stated) the results were NPYLR7 agonist -1 and NPYLR7 agonist max-min 7.
`Cn1c(=O)c2c(ncn2CCN)n(C)c1=O` gave NPYLR7 agonist -1 and NPYLR7 agonist max-min 1.
`Cc1[nH]c2ccc(F)cc2c1CC(=O)N(C)C1CCCC1` gave NPYLR7 agonist 1 and NPYLR7 agonist max-min 0.
Screening Cc1cc(C)n(-c2nnc3c(n2)[nH]c2ccccc23)n1 returned NPYLR7 agonist 5 and NPYLR7 agonist max-min 3.
Screening COCCNC(=O)C(NC(=O)c1cccs1)C1CCN(C(=O)c2cccc(F)c2)CC1 (configuration not stated) returned NPYLR7 agonist 14 and NPYLR7 agonist max-min 19.
For Cc1csc(SCCn2c(Br)nc3c2c(=O)[nH]c(=O)n3C)n1 the results were NPYLR7 agonist -4 and NPYLR7 agonist max-min -5.
`Cc1ccccc1CNCc1cc(C#N)n(C)c1C` gave NPYLR7 agonist -1&-1 and NPYLR7 agonist max-min -1&-3.
Screening Cc1ccoc1C(=O)NCc1cc(CC(C)C)on1 returned NPYLR7 agonist -1 and NPYLR7 agonist max-min -1.
CC(C)=CC(=O)N1CCC(Cc2ccc(F)cc2)CC1 was read as NPYLR7 agonist -1 and NPYLR7 agonist max-min 11.
`CC(C)c1ccc(NC2CCCN(C(=O)CCN3CCCO3)C2)cc1` (configuration not stated) gave NPYLR7 agonist 0 and NPYLR7 agonist max-min 1.
CC1CCc2c(sc(NC(=O)c3cc4ccccc4oc3=O)c2C(N)=O)C1 (configuration not stated) was read as NPYLR7 agonist -7 and NPYLR7 agonist max-min -15.
`CCN1C(=S)SC(=O)C1=C1C=C(C)OC(C)=C1` gave NPYLR7 agonist 10 and NPYLR7 agonist max-min 7.
Cc1cc(C)n(C2CCN(C(=O)CCCNC(=O)OCc3ccccc3)CC2)n1 was read as NPYLR7 agonist -4 and NPYLR7 agonist max-min -6.
`Cc1noc2nc3c(c(C(=O)NC4CCC(n5cnnc5)CC4)c12)CCC3` (configuration not stated) gave NPYLR7 agonist 4 and NPYLR7 agonist max-min 3.
`Cc1n[nH]c(C)c1CCc1n[nH]c(=O)n1Cc1cccs1` gave NPYLR7 agonist 6 and NPYLR7 agonist max-min 3.
CCn1nc(C(C)C)cc1C(=O)NCc1cccnc1N(C)C was read as NPYLR7 agonist 2 and NPYLR7 agonist max-min 1.
Screening O=C(NC1CCCCC1)C1CCC(=O)N1C1CCCCC1 (configuration not stated) returned NPYLR7 agonist 31 and NPYLR7 agonist max-min 21.
Cc1cccc2ncc(C(=O)N3CC(c4cccnc4)C3)c(=O)n12 was read as NPYLR7 agonist 5 and NPYLR7 agonist max-min 3.
`Oc1c(C=C2C=Nc3ccccc32)sc(=Nc2ccccc2)n1C1CCCC1` gave NPYLR7 agonist -7 and NPYLR7 agonist max-min -15.
O=C(Nc1ccc(-c2cscn2)cc1)C1CCCN(C(=O)CCc2cnccn2)C1 (configuration not stated) was read as NPYLR7 agonist 2&12 and NPYLR7 agonist max-min -2&5.
`COC(=O)c1sc2nc(C=Cc3ccsc3)[nH]c(=O)c2c1C` gave NPYLR7 agonist 14 and NPYLR7 agonist max-min 16.
`COc1cccc(C)c1NC(=O)c1cccc(CN2CCNC(=O)C2)c1` gave NPYLR7 agonist 19 and NPYLR7 agonist max-min 4.
Screening Cn1cc(C(=O)N2CCN(CC(=O)NCCc3ccccc3)CC2)c2nn(-c3ccccc3)c(=O)c-2c1 returned NPYLR7 agonist -3 and NPYLR7 agonist max-min -6.
`CC(NC(=O)c1ccc2ncsc2c1)C1CC2CCC1C2` (configuration not stated) gave NPYLR7 agonist 1 and NPYLR7 agonist max-min -1.
For O=C(NCC(F)F)C1(Oc2ccc(Cl)cc2)CCNCC1 the results were NPYLR7 agonist 20 and NPYLR7 agonist max-min 10.
COc1cc2c(cc1-c1nc3c(cnn3C)c(=O)[nH]1)OC(C)C2 (configuration not stated) was read as NPYLR7 agonist 0 and NPYLR7 agonist max-min -5.
Screening COc1ccccc1CCN1CCCC(CN(C)C(=O)Nc2ccc3c(c2)OCO3)C1 (configuration not stated) returned NPYLR7 agonist 2 and NPYLR7 agonist max-min -3.
`Cc1ccc(-n2nc3c(c2NC(=O)Cc2cccc4ccccc24)CS(=O)(=O)C3)cc1` gave NPYLR7 agonist -1 and NPYLR7 agonist max-min -3.
Screening Brc1ccc(C2Nc3cccc4cccc(c34)N2)o1 returned NPYLR7 agonist 13 and NPYLR7 agonist max-min 4.
COc1ccc(CC(=O)N(CC(=O)Nc2cc(-c3ccccc3)nn2-c2ccc(Cl)c(Cl)c2)C(C)C)cc1 was read as NPYLR7 agonist 0 and NPYLR7 agonist max-min 8.
`COc1ccc(-n2c(SCCCCC(=O)N3CCN(C(=O)c4ccc(F)cc4)C(C)C3)nnc2-c2ccco2)cc1` (configuration not stated) gave NPYLR7 agonist 13 and NPYLR7 agonist max-min 21.
For O=C(Nc1ccccc1)C1CCCN(C(=O)c2ccc(F)cc2Br)C1 (configuration not stated) the results were NPYLR7 agonist -5 and NPYLR7 agonist max-min -6.
`COc1ccc(S(=O)(=O)Nc2cc(-c3ccccc3)nn2C2CCS(=O)(=O)C2)cc1` (configuration not stated) gave NPYLR7 agonist -1 and NPYLR7 agonist max-min -3.
Screening Cc1n[nH]c(C)c1CNC(=O)CCCn1cnc2ccccc2c1=O returned NPYLR7 agonist -9 and NPYLR7 agonist max-min -12.
For CC(=O)N1CCCC2(CCN(Cc3c(F)ccc(C)c3Cl)C2)C1 (configuration not stated) the results were NPYLR7 agonist 6 and NPYLR7 agonist max-min 4.
`CC(=O)Oc1c(-c2ccc(NC(=O)C3CCCC3)cc2)c(C2CC2)nn1-c1cccc(C)c1` gave NPYLR7 agonist 4 and NPYLR7 agonist max-min 7.
O=C(NCc1c(F)cccc1F)c1cncn1-c1cccc(-c2cccc(OC(F)(F)F)c2)c1 was read as NPYLR7 agonist 3 and NPYLR7 agonist max-min 1.
Screening CCC(=O)Nc1cccc(-c2nc3ncccc3o2)c1C returned NPYLR7 agonist 8 and NPYLR7 agonist max-min 12.
Screening CCC1(C)N(O)C(C)(C)C(c2ccccc2)=[N+]1[O-] (configuration not stated) returned NPYLR7 agonist -15 and NPYLR7 agonist max-min -25.
Screening COc1cc(OC)cc(-c2nnc(SCc3cccc(C#N)c3)n2-c2cccc(C)c2)c1 returned NPYLR7 agonist 3 and NPYLR7 agonist max-min 0.
`Nc1nc2nc(CSc3nnnn3-c3cccc(Cl)c3)cc(=O)n2[nH]1` gave NPYLR7 agonist 17 and NPYLR7 agonist max-min 12.
Screening CCOC(=O)C1(Cc2ccccc2Cl)CCN(C(=O)CCn2cnnn2)CC1 returned NPYLR7 agonist 3 and NPYLR7 agonist max-min 2.

Compounds from the list above that contain a thiophene ring, fused or not (6):
For Cc1ccc(C2(O)CCN(C(=O)C(C)(C)NC(=O)c3cccs3)CC2)nc1 the results were NPYLR7 agonist 18 and NPYLR7 agonist max-min 13.
Screening Cc1nc2sc(C(=O)N(C)Cc3ccc(Br)s3)c(C)c2c(=O)[nH]1 returned NPYLR7 agonist -5 and NPYLR7 agonist max-min 5.
Screening COCCNC(=O)C(NC(=O)c1cccs1)C1CCN(C(=O)c2cccc(F)c2)CC1 (configuration not stated) returned NPYLR7 agonist 14 and NPYLR7 agonist max-min 19.
CC1CCc2c(sc(NC(=O)c3cc4ccccc4oc3=O)c2C(N)=O)C1 (configuration not stated) was read as NPYLR7 agonist -7 and NPYLR7 agonist max-min -15.
`Cc1n[nH]c(C)c1CCc1n[nH]c(=O)n1Cc1cccs1` gave NPYLR7 agonist 6 and NPYLR7 agonist max-min 3.
`COC(=O)c1sc2nc(C=Cc3ccsc3)[nH]c(=O)c2c1C` gave NPYLR7 agonist 14 and NPYLR7 agonist max-min 16.

(listing goes on)
`CC(C)CC(C(=O)N1CCOCC1)N1C(=O)CSC1c1cccc(C(F)(F)F)c1` (configuration not stated) gave NPYLR7 agonist 10 and NPYLR7 agonist max-min 16.
Cc1cc(C(=O)N2CCN(C)CC2C)c2[nH]ncc2c1 (configuration not stated) was read as NPYLR7 agonist -2 and NPYLR7 agonist max-min 21.
Screening CCOC(=O)C1C(=O)C=C(c2ccc(OC)c(OC)c2)CC1c1ccc(OC)cc1 (configuration not stated) returned NPYLR7 agonist 13 and NPYLR7 agonist max-min 14.
`CCCCC(CC)C(=O)Nc1c(-c2ccc(C)cc2)nc2ccccn12` (configuration not stated) gave NPYLR7 agonist -4 and NPYLR7 agonist max-min -2.
`COc1cccc2c1OCCCN(C(=O)c1cc3n(n1)CCCN(C)C3)C2` gave NPYLR7 agonist -1 and NPYLR7 agonist max-min -3.
`COc1ccc(-n2c(SCCN3CCOCC3)nnc2-c2ccccc2)cc1Cl` gave NPYLR7 agonist 9 and NPYLR7 agonist max-min 8.
Screening O=C(COC(=O)C=Cc1cccs1)Nc1ncc(Br)s1 returned NPYLR7 agonist 6 and NPYLR7 agonist max-min 7.
`COc1cc(=O)n(-c2ccc(C)cc2)nc1C(=O)N1CCC2(CC1)OCCO2` gave NPYLR7 agonist 8 and NPYLR7 agonist max-min 3.
`O=C(O)c1ccc(CSc2nc(-c3ccccc3)cc(N3CCN(c4ccccc4F)CC3)n2)cc1` gave NPYLR7 agonist 10 and NPYLR7 agonist max-min 10.
COc1ccc(OC)c(-c2csc(N)n2)c1 was read as NPYLR7 agonist 2 and NPYLR7 agonist max-min 5.
For Cc1cc(C)c(CN2CCOC(CN)C2)c(-n2cccn2)c1 (configuration not stated) the results were NPYLR7 agonist 8 and NPYLR7 agonist max-min 6.
O=S(=O)(c1ccccc1)N1CCCC(OCc2ccc(OC(F)(F)F)cc2)C1 (configuration not stated) was read as NPYLR7 agonist -3 and NPYLR7 agonist max-min -1.

Looked up one by one from the entries so far:
Screening Cc1n[nH]c(C)c1CNC(=O)CCCn1cnc2ccccc2c1=O returned NPYLR7 agonist -9 and NPYLR7 agonist max-min -12.
`COc1cc(=O)n(-c2ccc(C)cc2)nc1C(=O)N1CCC2(CC1)OCCO2` gave NPYLR7 agonist 8 and NPYLR7 agonist max-min 3.
For O=C(Nc1ccccc1)C1CCCN(C(=O)c2ccc(F)cc2Br)C1 (configuration not stated) the results were NPYLR7 agonist -5 and NPYLR7 agonist max-min -6.
`COC(=O)c1sc2nc(C=Cc3ccsc3)[nH]c(=O)c2c1C` gave NPYLR7 agonist 14 and NPYLR7 agonist max-min 16.

Next section:
`CC(C)C(NC(=O)CSc1nnc(N)n1C1CC1)c1cccs1` (configuration not stated) gave NPYLR7 agonist 4 and NPYLR7 agonist max-min 6.
Screening COc1cc(-c2ccnc(N3CCN(S(=O)(=O)c4ccc(Cl)cc4Cl)CC3)n2)cc(OC)c1OC returned NPYLR7 agonist 11 and NPYLR7 agonist max-min 8.
Screening CCN(CC)C(=O)Cn1cnc2ccc(Cl)cc2c1=O returned NPYLR7 agonist 14 and NPYLR7 agonist max-min 12.
Screening O=[N+]([O-])c1ccc(C=NNc2ccc(C(F)(F)F)cc2[N+](=O)[O-])o1 returned NPYLR7 agonist 0 and NPYLR7 agonist max-min 1.
`COCCNC(=O)CCC1CCN(C(=O)Nc2ccc(Cl)cc2C)CC1` gave NPYLR7 agonist 6 and NPYLR7 agonist max-min 4.
`Cc1cc(N2CCCCC2)n2c(nc3ccccc32)c1C#N` gave NPYLR7 agonist 0 and NPYLR7 agonist max-min -3.
Cc1cccc(-c2nc(C)c(C(C)C)c(N3CCN(C(=O)NC4CCCCC4)CC3)n2)c1 was read as NPYLR7 agonist 12 and NPYLR7 agonist max-min 14.
`C[C@@H]1CN(c2ccnc(C(=O)NCCc3ccccc3Cl)c2)C[C@H](C)O1` gave NPYLR7 agonist 0 and NPYLR7 agonist max-min 1.
CCN(C(=O)c1csc(SC)n1)C(C)CO (configuration not stated) was read as NPYLR7 agonist 1 and NPYLR7 agonist max-min 29.
`N#CC(=Cc1ccc(Sc2ccccc2)o1)C(=O)NC1CCCCC1` gave NPYLR7 agonist 0 and NPYLR7 agonist max-min -3.
For O=C1CCC(CCC(=O)N2CCC(c3ccccc3F)C2)(Cc2ccc3ccccc3c2)N1 (configuration not stated) the results were NPYLR7 agonist 0 and NPYLR7 agonist max-min -3.
CN(C(=O)c1ccc(OC(F)F)cc1)c1nc2ccccc2s1 was read as NPYLR7 agonist 20 and NPYLR7 agonist max-min 17.
`CC1(C)Cc2cc(CN3CCN(c4cncc(C(N)=O)n4)CC3)ccc2O1` gave NPYLR7 agonist 17 and NPYLR7 agonist max-min 7.
Screening COC(=O)C1C(=O)CSC1=Nc1ccccc1F (configuration not stated) returned NPYLR7 agonist -10 and NPYLR7 agonist max-min -4.
`CC(CNC(=O)N(C)CCS(C)(=O)=O)c1ccc(F)c(F)c1` (configuration not stated) gave NPYLR7 agonist 5 and NPYLR7 agonist max-min 2.
O=S(=O)(c1cccc2nsnc12)N1CCN(C/C=C/c2ccccc2)CC1 was read as NPYLR7 agonist 7 and NPYLR7 agonist max-min 2.

High-throughput results: PubChem, Fisher Drug Discovery Resource Center
